Source: PubChem BioAssay
VACV Venus inh – qHTS for Stage-Specific Inhibitors of Vaccinia Orthopoxvirus: Venus Reporter Primary qHTS; Potency, µM (highest dose often 36.5 µM), for inactives: at the top dose activity change, negative = inhibition, hits mostly inhibitors; Vaccinia virus Venus reporter expression, fluorescence; hit rate 0.46% among 330,000; AID 720580, 2013; active means well fitted inhibition curve with a large enough effect; inconclusive means small, poorly fitted or top-dose-only effect; inactive means no such curve, though single readings can be large or run the other way; tested in A549 cells; further: nearly all actives have a fitted effect of over 30% in size; inactives centre near -10
Vaccinia mCherry – qHTS for Stage-Specific Inhibitors of Vaccinia Orthopoxvirus: mCherry Reporter Primary qHTS. Vaccinia virus mCherry reporter infection, fluorescence; about a quarter of the inactives have no number. Potency, µM (top dose mostly 36.5 µM), inactives show top-dose activity change, negative = inhibition, hits mostly inhibitors. hit rate 0.63% among 310,000. AID 720579, 2013; active = well fitted inhibition curve with a large enough effect; inconclusive = small, poorly fitted or top-dose-only effect; inactive = no such curve, though single readings can be large or run the other way; tested in A549 cells; further: nearly all actives have a fitted effect of over 35% in size; inactives centre near -10
The depositor's hits bear a star; i = inactive; ? = inconclusive; nt = not tested or not shown; & = joins results of further samples; [ ] = dose if it differs, or a comment. On the % scale 0 is the no-effect control and ±100 the full control effect; potency means the concentration at half of the fitted maximal effect.

SMILES	VACV Venus inh	Vaccinia mCherry
OCC[C@H]1C[C@H](O)[C@@H](O)[C@]2(CCc3ccccc3O2)O1	-3%	i
Cc1cc2c(cc1S(=O)(=O)Nc1cccc(C(F)(F)F)c1)OCCN2C	-15%	-15%
COc1ccc(-c2noc(-c3csc([C@@H]4C[C@H](O)[C@@H](CO)O4)n3)n2)cc1OC	-18%	-30%
O=C(CSc1ncccn1)NCc1cccs1	-10%	i
COc1ccc(Nc2ncc3c(n2)CCN(Cc2sccc2C)C3)c(OC)c1	-7%	-21%
COc1ccc(NC(=O)C(c2ccc(C(F)(F)F)cc2)n2c(=O)c(-c3ccco3)nc3ccccc32)cc1 (stereo not drawn)	-2%	-7%
Cn1c(O)c(C=Nc2ccccc2)c(=O)n(C)c1=O	-13%	-20%
CCCCN(C(=O)c1ccc(N(C)S(=O)(=O)c2ccc(C)cc2)cc1)c1c(N)n(CCCC)c(=O)[nH]c1=O	-5%	-11%
COc1ccc(C(=O)N[C@H](C(=O)OCc2cc(=O)oc3cc(C)ccc23)C(C)C)cc1	-8%	-2%
COc1cc2ccc(=O)oc2c(O)c1O	?	-13%&-18%
COC(=O)c1sc(NC(=O)c2csc3c2CCCC3)nc1C	-9%	-4%
COc1cc(OC)cc(C(=O)Nc2cccc(-c3ccc(N4CCOCC4)nn3)c2)c1	-20%	-20%
CCc1nnc(NS(=O)(=O)c2ccc(NC(=O)/C=C/c3ccc(OC)cc3OC)cc2)s1	-15%	i
CC(C)c1nc2sc3c(c2c(=O)n1N)CC(C)(C)OC3	0%	-8%
Cc1ccc(/C=C/C(=O)NCCCc2ccccc2)cc1	-7%	-9%

Compounds listed so far that contain two or more sulfur atoms (3):
SMILES	VACV Venus inh	Vaccinia mCherry
O=C(CSc1ncccn1)NCc1cccs1	-10%	i
COC(=O)c1sc(NC(=O)c2csc3c2CCCC3)nc1C	-9%	-4%
CCc1nnc(NS(=O)(=O)c2ccc(NC(=O)/C=C/c3ccc(OC)cc3OC)cc2)s1	-15%	i

Whole records from above. Order of values: VACV Venus inh	Vaccinia mCherry
COc1ccc(-c2noc(-c3csc([C@@H]4C[C@H](O)[C@@H](CO)O4)n3)n2)cc1OC is entered as -18%	-30%
Cc1ccc(/C=C/C(=O)NCCCc2ccccc2)cc1 is entered as -7%	-9%
CCc1nnc(NS(=O)(=O)c2ccc(NC(=O)/C=C/c3ccc(OC)cc3OC)cc2)s1 is entered as -15%	i
Cn1c(O)c(C=Nc2ccccc2)c(=O)n(C)c1=O is entered as -13%	-20%
OCC[C@H]1C[C@H](O)[C@@H](O)[C@]2(CCc3ccccc3O2)O1 is entered as -3%	i

(continued)
SMILES	VACV Venus inh	Vaccinia mCherry
CCOc1ccccc1OCCCC(=O)NNC(=O)c1nn(C)c(=O)c2ccccc12	-8%	13%
COc1cccc(-c2nc3n(n2)CCc2ccccc2-3)c1	-23%	i
CC1(C)S[C@@H]2[C@H](NC(=O)[C@H](N)c3ccc(O)cc3)C(=O)N2[C@H]1C(=O)O	-22%&-12%	-3%
O=C(CCCn1c(=O)[nH]c2ccsc2c1=O)N1CCN(c2ccc(Cl)cc2)CC1	-15%	-18%
Cc1cc(C)c2c(n1)SCC(=O)N2CC(=O)Nc1ccccc1C	-8%	-15%
Cc1ccccc1N=Nc1c(C)[nH]n(C(N)=S)c1=O	-15%	-26%
CC(C)(C)c1ccc(C(=O)NCc2nnc(SCC(=O)NC3CCCCC3)o2)cc1	-18%	-7%
COc1cc(OC)cc(N2CC(C)(C)C2=O)c1	0%	2%
COC(=O)c1cc(S(=O)(=O)N2CCN(c3cccc(OC)c3)CC2)cn1C	-8%	i
O=C(NCC(c1cccs1)S(=O)(=O)c1cccs1)c1ccccc1 (stereo not drawn)	-4%[7.34 µM]	-8%[7.34 µM]
Cc1cccc(-n2c(Cc3ccccc3)nnc2SCc2ccc([N+](=O)[O-])cc2)c1	-20%	-10%
CCOC(=O)COc1cc(C)c(Cl)cc1C(=O)c1ccn2nc(-c3ccc(OC)cc3)cc2n1	?	-27%
O=C1Nc2ccccc2O/C1=C\c1c(F)cccc1Cl	-24%	-8%
COc1ccccc1C(=O)NC(=O)CSc1ccc(C)c(C)c1	-15%	-25%
Cc1c(C(=O)N(Cc2ccccc2F)C2CCS(=O)(=O)C2)oc2ccc(F)cc12 (stereo not drawn)	-9%	-7%
CCOc1ccc(S(=O)(=O)N2CCC(C(=O)NCc3ccccn3)CC2)cc1	-7%	i
CCCC(=O)N1CCc2cc(-c3nc(N)sc3C)ccc21	-18%	-10%
Cc1ccc(C(=O)NC2CCN(Cc3ccccc3)CC2)cc1S(=O)(=O)N1CCOCC1	-22%	-22%
COCCSc1nnc(NC(=O)Cc2cccs2)s1	-8%	i
CCC(C(=O)O)n1c(C(F)(F)F)nc2ccccc21 (stereo not drawn)	9%	-6%
CCOC(=O)C1CCCN(C(=O)c2cccc3ccccc23)CC1 (stereo not drawn)	-2%	41%[activator]
O=C(CCc1ccccc1Cl)Nc1ccc(S(=O)(=O)Nc2nccs2)cc1	-9%	-6%
CC(=O)Nc1ccc2nc(NC(=O)COc3ccccc3C)sc2c1	1%	-13%
Cc1c(Cl)cccc1NC(=S)N(C)CCC#N	-12%	-7%
Cc1ccccc1OCc1nnc(SCC(=O)O)n1Cc1ccccc1	2%	-11%
CCOCCCNC(=O)c1cnc2sc(N3CCCCCC3)nn2c1=O	-11%	-5%
Cc1cnc(C(=O)OCC(=O)N2CCc3ccccc3C2)cn1	-3%	nt
Cc1ccc2c(c1)CC1(CN2C)C(=O)NC(=O)N(c2ccc(C)c(C)c2)C1=O (stereo not drawn)	-10%	nt
Cn1c(=O)c2c(SCC(N)=O)nc(CC(C)(C)C)nc2n(C)c1=O	-10%	-6%
Nc1cc(=O)[nH]c(=S)n1-c1ccccc1	-9%	-13%

Retrieved by structure from above, 4 records:
SMILES	VACV Venus inh	Vaccinia mCherry
Cc1ccc(C(=O)NC2CCN(Cc3ccccc3)CC2)cc1S(=O)(=O)N1CCOCC1	-22%	-22%
CCOC(=O)C1CCCN(C(=O)c2cccc3ccccc23)CC1 (stereo not drawn)	-2%	41%[activator]
Cc1cnc(C(=O)OCC(=O)N2CCc3ccccc3C2)cn1	-3%	nt
Cn1c(=O)c2c(SCC(N)=O)nc(CC(C)(C)C)nc2n(C)c1=O	-10%	-6%

Molecules above containing a furan ring, fused or not:
SMILES	VACV Venus inh	Vaccinia mCherry
COc1ccc(NC(=O)C(c2ccc(C(F)(F)F)cc2)n2c(=O)c(-c3ccco3)nc3ccccc32)cc1 (stereo not drawn)	-2%	-7%
Cc1c(C(=O)N(Cc2ccccc2F)C2CCS(=O)(=O)C2)oc2ccc(F)cc12 (stereo not drawn)	-9%	-7%

Next results follow.
SMILES	VACV Venus inh	Vaccinia mCherry
COc1ccc(-n2c(=O)c3ccccc3n(CC(=O)Nc3cc(C)on3)c2=O)cc1OC	-10%	nt
CCOC(=O)C1=C(C)OC(N)=C(C#N)C1c1cc(OC)c2c(c1)OCO2 (stereo not drawn)	-23%	nt
CN(CC(=O)Nc1ccccc1Br)C(=O)CNC(=O)Cc1cccc2ccccc12	-7%	-13%
Cc1ccc(Cl)cc1NC(=O)Nc1cccs1	-14%	?
NC(=O)C1(N2CCCCC2)CCN(C2CC(=O)NC2=O)CC1 (stereo not drawn)	-5%	i
COc1ccc(C2=NOC(C)(c3nnc(-c4ccc(F)cc4)o3)C2)cc1 (stereo not drawn)	-7%	-20%
CCOc1ccccc1-c1noc(CSc2nnc(-c3ccccc3)n2-c2ccc(F)cc2)n1	-7%	-19%
CN(C)CCN(Cc1ccco1)C(=O)c1oc2ccccc2c1NC(=O)c1ccccc1	-20%	-13%
COc1ccc(/C=C(/NC(=O)c2ccc(OC)c(OC)c2)C(=O)NCCCn2ccnc2)cc1	9%	i
CC(C)c1ccc(Nc2nnc(SCC(=O)Nc3ncc(S(=O)(=O)c4ccc([N+](=O)[O-])cc4)s3)s2)cc1	?	-3%
Cc1cccc(-c2ncc(CN3CCN(C4CCCC4)C(CCO)C3)cn2)c1 (stereo not drawn)	-17%	-8%
Cc1ccc(C)c(NC(=O)c2ccc3c(c2)N(Cc2ccc(F)cc2)C(=O)CS3=O)c1 (stereo not drawn)	-13%	-13%
Cc1ccc(Cc2c(C)nc3nc(SCC(=O)NC4CCC(C)CC4)nn3c2C)cc1 (stereo not drawn)	-8%	-6%
COCCn1c(CCC(=O)O)ccc1-c1cccs1	-11%	-9%
COc1cc(-c2cnc3c(NC=O)cc(-c4ccccc4Cl)cn23)cc(OC)c1OC	?	?
Cc1cc(S(=O)(=O)C(CNC(=O)c2ccc(F)c(F)c2)c2cccs2)ccc1F (stereo not drawn)	-9%	-9%
CN(C)CCNC(=O)c1sc2cccc(F)c2c1Cl	-12%	-17%
O=C(O)c1sccc1Oc1ccc(NS(=O)(=O)c2cccc(F)c2)cc1	-5%	-29%
COC(=O)C1CCCN1C(C(=O)NC1CCCCC1)c1ccc(Cl)cc1 (stereo not drawn)	-11%	12%
Cc1ccc(C)c2c(SC(C)C(=O)NCc3ccco3)nc(-c3ccccc3)nc12 (stereo not drawn)	4%	nt
O=C(N/N=C/c1ccco1)c1cnccn1	-6%	-2%
N#Cc1nc(-c2ccccc2Cl)oc1N1CCOCC1	-22%	-3%
O=C(C[C@H]1C=C[C@@H](NC(=O)c2ccncc2)[C@@H](CO)O1)NCC1CC1	-7%	-15%
COc1ccc(/C=C(\NC(=O)c2cccs2)C(=O)Nc2ccccc2C)cc1OC	3%	-12%
Cc1ccccc1CNCCSc1nnnn1-c1ccccc1	-10%	-5%
CC1CC2=C(NC(=S)NC2c2ccccc2F)/C(=C/c2ccccc2F)C1 (stereo not drawn)	-18%	-25%
COc1ccc(/C=N/c2nc3ccccc3n2C)cc1OC	-6%	-16%
CCOc1ccc(OCC(=O)Nc2c3c(nn2C(C)(C)C)CS(=O)(=O)C3)cc1	-12%	i
O=C1CCC(C(=O)Nc2cccc(S(=O)(=O)Nc3ccccc3F)c2)=NN1	6%	-5%
Cc1cc(=O)oc2cc(OCC(=O)N3CCCC(C)C3)ccc12 (stereo not drawn)	-13%	nt
COc1ccc(C(=O)NCC(=O)OCC(=O)c2ccccc2Br)cc1OC	-3%	-20%
O=S(=O)(c1ccccc1)c1nnn2c1nc(NC1CCCCCC1)c1sccc12	?	?
CC(=O)c1cccc(NC(=O)N2CCC(C(=O)c3ccc(F)cc3)CC2)c1	-3%	9%
C[N+]1(CC(=O)OCCCc2ccccc2)CCOCC1	-11%	-16%
COc1ccc(C(=O)CCS(=O)(=O)c2ccc(C)cc2)cc1OC	?	?
CC1CCN(c2ccc3nnc(CCC(=O)NCCCOC(C)C)n3n2)CC1	-14%	i
COC(=O)c1cc(S(=O)(=O)NCCc2ccc(SC)cc2)c[nH]1	-18%	-17%
Cc1ccc(C)c(NC(=O)CCC(=O)N/N=C2/CC(=O)CC(C)(C)C2)c1	-7%	?
NS(=O)(=O)c1cccnc1Nc1ccc(Cl)c(Cl)c1	?	nt
N/C(=N\c1nc2c(c(=O)[nH]1)CCC2)Nc1ccccc1	-1%	i
Cc1cccc(N2CCN(S(=O)(=O)c3ccc(F)c(C(=O)Nc4ccc(C(C)C)cc4)c3)CC2)c1C	-12%	-7%
O=c1oc2ccccc2c(NCCc2ccccc2)c1[N+](=O)[O-]	-11%	-19%
c1cc2ccc3ccc(CN4CCOCC4)c4ccc(c1)c2c34	-21%	i
Cc1cnc(C(=O)OCC(=O)Nc2ccc(Cl)cc2)cn1	-6%	-1%
CCCCNC(=O)Nc1cnn(CC)c1C(N)=O	0%	-14%
